HNF4A DNA FP: change in binding of human HNF4 alpha to DNA; P41235; HNF4a-FITC DNA binding, fluorescence polarization, 1 h; activity change, % at 10 µM; 0.3% of 360,000 active; in the data active = activity change above about 30%, passing the limit was not always enough;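 note: controls were the assay level and a saturating level of protein; the project sought stronger binding though the title names inhibitors; some compounds called inactive have numbers as strong as hits; positive values seem to mean higher polarization but the record does not say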
Ecoli growth: inhibitors of Escherichia coli growth. OD600, 23 h; active compounds read low. OD600 absorbance (concentration not given with the values). 0.21% of 330,000 active. AID 1053175;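 active = OD600 absorbance below the run mean of sample wells minus 3.6 SD, in any replicate, cut at about 0.56 in these data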;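 note: stock transfer was 300 nL into about 60 µL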
B2AR ag: human beta-2 adrenergic receptor agonism by FAP; 0.43% of 340,000 active; Am2.2-beta2AR cells, FAP receptor internalization, flow cytometry; reference of the scale not given here; response, % (no concentration beside the values); P07550;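 active = response above a set limit, near 3 SD of response in nonfluorescent compounds, cut at about 42% in these data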;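 note: stock transfer was 100 nL into about 11 µL; a reference agonist was the positive control; negative values mostly stem from fluorescent compounds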
Target sequence (P07550 whole entry, looked up): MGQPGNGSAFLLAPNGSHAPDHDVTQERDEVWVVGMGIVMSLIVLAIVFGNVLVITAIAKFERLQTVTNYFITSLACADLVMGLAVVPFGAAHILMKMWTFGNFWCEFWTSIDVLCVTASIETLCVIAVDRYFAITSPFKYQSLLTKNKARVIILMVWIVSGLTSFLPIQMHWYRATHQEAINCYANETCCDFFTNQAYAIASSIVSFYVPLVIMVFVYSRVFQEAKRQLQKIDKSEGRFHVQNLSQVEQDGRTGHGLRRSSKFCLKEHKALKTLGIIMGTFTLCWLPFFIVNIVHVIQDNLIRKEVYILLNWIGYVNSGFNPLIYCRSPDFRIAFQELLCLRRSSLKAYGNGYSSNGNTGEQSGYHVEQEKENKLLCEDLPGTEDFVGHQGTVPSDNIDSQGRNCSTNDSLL
ALR H2O2 inh: human ALR oxidase inhibition via reduced H2O2; purified ALR, DTT oxidation, H2O2 HRP-luminol luminescence; inhibition, % (concentration not given with the values); 3.8% of 290,000 active;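 active = mean and each replicate at 75% or more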;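 note: stock transfer was 7.5 nL into about 7.5 µL; 0% = neutral wells and 100% = wells with inactivated enzyme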
Ecoli rRNA inh: inhibits bacterial ribosomal RNA function over humanized ribosomes. GFP signal change (wild-type ribosome), % (test concentration not listed). E. coli WT GFP vs humanized-ribosome RFP mutants, fluorescence, 24 h; active compounds read low; DMSO median 0, no signal -100. 1.6% of 350,000 active;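 active = significant combined selectivity score with lowered wild-type GFP, culture density cut under 30%, mutant RFP and density less affected; inactive = any of these conditions unmet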; note: one replicate is shown; some compounds called inactive have numbers as strong as hits
UCH37 DUB inh: inhibitors of human deubiquitinating enzyme UCH37 | Q9Y5K5 | purified proteasome/UCH37, Ub-AMC cleavage fluorescence | inhibition, % (no concentration beside the values) | 0.33% of 330,000 active | AID 588478;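 active = mean of two replicates above 20%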;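 note: 0% = compound-free wells with enzyme and 100% = wells lacking proteasome; stock transfer was 100 nL into about 20 µL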
Target sequence (Q9Y5K5 whole entry, looked up): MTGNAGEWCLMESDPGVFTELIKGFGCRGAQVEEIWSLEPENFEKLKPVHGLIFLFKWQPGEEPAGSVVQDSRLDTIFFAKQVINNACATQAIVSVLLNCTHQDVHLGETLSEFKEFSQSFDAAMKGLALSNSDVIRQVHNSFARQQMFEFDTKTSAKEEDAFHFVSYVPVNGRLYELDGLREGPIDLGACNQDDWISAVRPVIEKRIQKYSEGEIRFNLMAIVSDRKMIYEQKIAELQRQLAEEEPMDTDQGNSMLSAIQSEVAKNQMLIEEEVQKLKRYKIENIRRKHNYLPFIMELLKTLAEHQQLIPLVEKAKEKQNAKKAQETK
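Test system – human UCH37 enzyme supplied as purified proteasome complex · Incubation – 30 min preincubation with enzyme, 25 min cleavage at room temperature · Detection – AMC fluorescence from Ub-AMC cleavage, excitation 355 nm, emission 460 nm · Benchmarks – no-proteasome wells (full inhibition) and compound-free wells (no inhibition)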
FGF22 binding: FGF22 (human) thermal shift binding. recombinant FGF22 thermal shift, SYPRO orange fluorescence; percent of sucrose octasulfate shift, DMSO zero. calls only at 9.99 µM. 1.5% of 340,000 active;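 active = melting point raised past a set limit in the mean and every replicate; three in four hits are not shown here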
Ecoli rRNA inh OD600: further read-out of Ecoli rRNA inh, marked with its call; OD600 change, %; measured here: OD600 growth;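 optical density of the mix in the first replicate; 0 = DMSO median and -100 = no signal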
Ecoli rRNA inh RFP: also measured in Ecoli rRNA inh; calls as there; RFP signal change, %; measured here: RFP humanized mutant strains;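 first replicate; 0 = DMSO median and -100 = no signal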
Active calls of the source: *; i = inactive; . = not tested or not shown. A portion of the library. The share of hits here may be higher or lower than overall.

No.	HNF4A DNA FP	Ecoli growth	B2AR ag	ALR H2O2 inh	Ecoli rRNA inh	Ecoli rRNA inh OD600	Ecoli rRNA inh RFP	UCH37 DUB inh	FGF22 binding	compound
1	3.1	.	1	13	.	.	.	.	.	C(=N\N1CCN(Cc2ccccc2)CC1)/c1cccs1
2	0.1	0.77	13	.	-2	-4	2.3	2.0	.	CSc1cccc(NC(=S)N(Cc2ccc(C)cc2)Cc2cccnc2)c1
3	2.5	0.68	-2	-6	-4	0	-0.4	14	i	CC1C(=O)Nc2ccc(S(=O)(=O)N3CCCCCC3)cc21 (stereo not drawn)
4	-1.1	0.6	-4	3	-7	-4	8.2	-0.5	i	NS(=O)(=O)OCCCc1ccc(C(F)(F)F)cc1
5	-3.7	0.71	5	.	.	.	.	0.9	.	Cc1ccc(S(=O)(=O)N[C@H](C(=O)N2CCC(C(=O)N3CCC[C@H]3C(=O)O)CC2)C(C)C)cc1
6	0.3	0.68	-3	.	-4	-1	0.5	7.8	i	CSCC[C@H](NC(=O)Nc1ccc(OC(F)(F)F)cc1)C(=O)O
7	2.3	.	-11	-2	10	5	0.3	.	i	CCOc1ccc(/C=N/n2c(C3CCCCC3)n[nH]c2=S)cc1
8	-5.1	.	-8	-3	7	9	-5.2	.	i	CCOc1ccc(CNC(=O)CCCn2nc(C)c3c(C)n(-c4ccc(C)cc4)nc3c2=O)cc1
9	1.6	0.66	-1	3	19	6	-7.7	1.2	i	C=CCn1c(SCC(=O)Nc2nnc(C)s2)nnc1-c1cccnc1
10	-2.3	0.66	-8	-6	1	9	2.0	5.1	i	COc1ccccc1OCCn1c(=S)[nH]c2ccccc21

5 entries already listed, ordered by their value in Ecoli rRNA inh, descending:
entry | Structure | HNF4A DNA FP | Ecoli growth | B2AR ag | ALR H2O2 inh | Ecoli rRNA inh | Ecoli rRNA inh OD600 | Ecoli rRNA inh RFP | UCH37 DUB inh | FGF22 binding
9 | C=CCn1c(SCC(=O)Nc2nnc(C)s2)nnc1-c1cccnc1 | 1.6 | 0.66 | -1 | 3 | 19 | 6 | -7.7 | 1.2 | i
7 | CCOc1ccc(/C=N/n2c(C3CCCCC3)n[nH]c2=S)cc1 | 2.3 | . | -11 | -2 | 10 | 5 | 0.3 | . | i
8 | CCOc1ccc(CNC(=O)CCCn2nc(C)c3c(C)n(-c4ccc(C)cc4)nc3c2=O)cc1 | -5.1 | . | -8 | -3 | 7 | 9 | -5.2 | . | i
10 | COc1ccccc1OCCn1c(=S)[nH]c2ccccc21 | -2.3 | 0.66 | -8 | -6 | 1 | 9 | 2.0 | 5.1 | i
3 | CC1C(=O)Nc2ccc(S(=O)(=O)N3CCCCCC3)cc21 (stereo not drawn) | 2.5 | 0.68 | -2 | -6 | -4 | 0 | -0.4 | 14 | i

Among those listed so far, two have an aryl thioether with sulfur outside any ring.
No.	HNF4A DNA FP	Ecoli growth	B2AR ag	ALR H2O2 inh	Ecoli rRNA inh	Ecoli rRNA inh OD600	Ecoli rRNA inh RFP	UCH37 DUB inh	FGF22 binding	compound
2	0.1	0.77	13	.	-2	-4	2.3	2.0	.	CSc1cccc(NC(=S)N(Cc2ccc(C)cc2)Cc2cccnc2)c1
9	1.6	0.66	-1	3	19	6	-7.7	1.2	i	C=CCn1c(SCC(=O)Nc2nnc(C)s2)nnc1-c1cccnc1

More results follow:
No.	HNF4A DNA FP	Ecoli growth	B2AR ag	ALR H2O2 inh	Ecoli rRNA inh	Ecoli rRNA inh OD600	Ecoli rRNA inh RFP	UCH37 DUB inh	FGF22 binding	compound
11	5.3	0.71	0	-3	.	.	.	2.0	.	CCOCCCNC(=O)C1CCN(S(=O)(=O)c2ccc(C)cc2)CC1
12	-1.0	.	-5	-5	.	.	.	.	.	O=C(CNC(=O)c1ccc(S(=O)(=O)N2CCCC2)cc1)N/N=C/c1c(Cl)cccc1Cl
13	-3.7	0.7	-1	-11	4	3	8.5	2.6	i	Cn1cnnc1Sc1ccc(C(=O)OCC(=O)NCC(F)(F)F)cc1[N+](=O)[O-]
14	0.2	0.71	9	.	-1	-1	1.7	3.8	i	O=C(/C=C/c1cc([N+](=O)[O-])ccc1OC(F)F)Nc1cccc(OC(F)F)c1
15	.	0.67	.	3	.	.	.	-0.5	.	CCOC(=O)N1CCC(N2C(=O)c3ccccc3C2Nc2ccc(S(=O)(=O)N3CCCCC3)cc2)CC1 (stereo not drawn)
16	2.7	0.72	4	-2	5	6	-2.0	-5.1	i	CN(CC(=O)NCc1ccccc1Cl)S(=O)(=O)c1ccc2c(c1)n(C)c(=O)c(=O)n2C
17	0.3	0.73	3	-29	.	.	.	7.2	.	COc1ccc(C(=O)COC(=O)CN2C(=O)C3C4C=CC(C4)C3C2=O)cc1 (stereo not drawn)
18	4.6	0.66	0	-5	6	5	-6.2	0.6	i	COc1ccc(OC)c(NC(=O)CNC(=O)c2ccc([N+](=O)[O-])cc2)c1
19	4.1	0.69	9	-12	11	4	1.9	0.4	i	COc1ccc(S(=O)(=O)N2CCC(C(=O)Oc3cccc(C)c3)CC2)cc1OC
20	0.0	0.67	-7	14	-7	-3	-0.3	4.6	i	Cc1ccc(C)c(OCc2ccc(C(=O)NN)o2)c1
21	-1.1	0.73	8	.	.	.	.	-3.0	.	COc1cc2sc(-c3ccccc3OC)c(-c3ccc(OCCN4CCOCC4)cc3)c2cc1OC
22	-5.0	0.72	-4	-15	15	12	-1.0	1.9	i	Cc1csc(SCC(=O)N(C)c2c(N)n(Cc3ccccc3)c(=O)[nH]c2=O)n1
23	-0.4	0.67	2	4	10	-1	-14	-4.5	i	CCOC(=O)CSc1nc(=O)n2ccc(C)cc2n1
24	3.6	0.72	-8	.	8	14	-0.9	-2.0	i	CCN(CC)CCNC(=O)c1ccc(NC2=NC3CS(=O)(=O)CC3S2)cc1 (stereo not drawn)
25	2.9	.	0	-2	-2	-1	0.7	.	i	Cc1ccc(C(=O)OCC(=O)NCC2COc3ccccc3O2)cc1 (stereo not drawn)
26	1.3	0.69	-7	-7	.	.	.	-3.2	.	Cc1cccc(NC(=O)c2ccc(-n3ccnc3)nc2)c1
27	1.9	0.68	-2	73	-12	-16	9.3	-0.4	i	COc1ccc(N2CCN(C(=O)CN(C)S(=O)(=O)c3ccc4c(c3)c(=O)n(C)c(=O)n4C)CC2)cc1
28	2.1	0.69	0	.	6	10	0.0	-0.3	i	Nc1c(N(Cc2ccco2)C(=O)COc2ccc(Cl)cc2)c(=O)[nH]c(=O)n1Cc1ccccc1
29	2.5	0.69	-1	-26	11	6	-3.0	0.3	i	O=C(CC1C(=O)NCCN1C/C=C/c1ccccc1)NCCc1ccncc1 (stereo not drawn)
30	-4.7	0.69	2	-1	6	8	1.9	30*	i	CCOc1ccc(CCNC(=O)CCS(=O)(=O)c2ccc(OC)cc2)cc1OCC
31	0.2	0.61	4	.	.	.	.	-137	.	N#Cc1cnc2sc3ccccc3n2c1=N
32	3.7	0.65	-21	-2	-14	-19	9.7	1.2	i	S=c1nc(NCc2ccc3c(c2)OCO3)c2ccccc2[nH]1
33	-1.2	.	2	10	3	7	2.6	0.4	i	CC(C)(C)OC(=O)C[C@@H]1C/C=C\C[C@@H](CC(=O)N(CCO)Cc2ccccc2)C(=O)NCCOC1=O

Three structures from above, arranged by SMILES length, highest first:
No.	HNF4A DNA FP	Ecoli growth	B2AR ag	ALR H2O2 inh	Ecoli rRNA inh	Ecoli rRNA inh OD600	Ecoli rRNA inh RFP	UCH37 DUB inh	FGF22 binding	compound
25	2.9	.	0	-2	-2	-1	0.7	.	i	Cc1ccc(C(=O)OCC(=O)NCC2COc3ccccc3O2)cc1 (stereo not drawn)
20	0.0	0.67	-7	14	-7	-3	-0.3	4.6	i	Cc1ccc(C)c(OCc2ccc(C(=O)NN)o2)c1
31	0.2	0.61	4	.	.	.	.	-137	.	N#Cc1cnc2sc3ccccc3n2c1=N
